RE007 growth inh: qHTS Assay for Inhibitors of the HIV-1 protein Vpr | actives 0.21% (n = 360,000) | S. pombe RE007 Vpr strain, BacTiter-Glo ATP luminescence, 24 h; control for the full effect not named in the record | Potency, µM (titrated, usually from 92.2 µM), inactives show at the highest dose activity change, negative = less growth; active = well fitted falling curve with a large enough effect; inconclusive = small, poorly fitted or top-dose-only effect; inactive = no such curve, though single readings can be large or run the other way;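 note: % is set by controls: 0 for no effect and ±100 for the full control effect; nearly all actives have a fitted effect of over 50% in size; the assay follows cell death caused by Vpr and the record does not say whether a fall means rescue or toxicity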
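Fission yeast RE007 carrying one integrated HIV-1 vpr copy, seeded at OD 0.01 in PMG+AL medium with 23 nL pinned compound. Grown 24 h at 30 degrees; viability read by BacTiter-Glo luminescence after 5 min.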
Cruzain inh Det: qHTS Assay for Promiscuous and Specific Inhibitors of Cruzain (with detergent); Cruzipain (Trypanosoma cruzi), P25779; purified cruzain, Z-FR-AMC fluorescence, 0.01% Triton; Potency, µM, for inactives: max response, negative = inhibition, actives largely listed as inhibitors; actives 0.43% (n = 200,000); AID 1478, 2009;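 note: plate controls were neutral wells for no effect and buffer without enzyme for full effect; nearly all actives have a fitted effect of over 40% in size; top concentration of the series not given in the record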
Target sequence (P25779 123-467 limits assumed): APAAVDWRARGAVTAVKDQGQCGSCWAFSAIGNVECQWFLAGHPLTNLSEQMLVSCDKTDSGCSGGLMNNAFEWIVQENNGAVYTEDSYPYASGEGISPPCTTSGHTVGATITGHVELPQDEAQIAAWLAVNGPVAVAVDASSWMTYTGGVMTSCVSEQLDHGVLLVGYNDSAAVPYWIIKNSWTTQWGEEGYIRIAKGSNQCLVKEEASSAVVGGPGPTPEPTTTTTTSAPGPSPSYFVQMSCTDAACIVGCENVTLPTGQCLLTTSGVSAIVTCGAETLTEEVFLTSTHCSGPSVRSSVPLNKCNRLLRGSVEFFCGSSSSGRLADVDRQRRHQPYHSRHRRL
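Compounds were screened in titration against cruzain (1.5 nM) with 0.01% Triton X-100 to counter colloidal aggregation. Activity was the AMC fluorescence increase over 60 s after adding 2 uM Z-FR-AMC at pH 5.5.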
Marburg entry inh: qHTS for inhibitors of binding or entry into cells for Marburg Virus | Marburg virus pseudotyped entry inhibition, cell reporter; control for the full effect not named in the record; about a third of the inactives were read at about 46 µM | Potency, µM (top dose mostly 37.8 µM), without a hit: at the top dose activity change, negative = inhibition, actives largely listed as inhibitors | actives 1.8% (n = 300,000) | AID 540276, 2011; active = well fitted inhibition curve with a large enough effect; inconclusive = small, poorly fitted or top-dose-only effect, or effect the other way; inactive = flat fitted curve, though single readings scatter; tested in HEK293 cells; about a fifth of its hits are not listed in these tables; note: % is set by controls: 0 for no effect and ±100 for the full control effect; luciferase read-out
Cruzain inh noDet: qHTS Assay for Promiscuous and Specific Inhibitors of Cruzain (without detergent) | Potency, µM, for the others: max response, negative = inhibition, most hits filed as inhibitors | purified cruzain, Z-FR-AMC fluorescence, no detergent | actives 2.3% (n = 200,000);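 note: plate controls were enzyme without inhibitor for no effect and buffer without enzyme for full effect; nearly all actives have a fitted effect of over 40% in size; top concentration of the series not given in the record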
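Purified cruzain at 1.5 nM, pre-incubated 15 min with compound at room temperature in 100 mM sodium acetate pH 5.5, 5 mM DTT, 0.00005% Triton X-100. Reaction started with 2 uM Z-FR-AMC; AMC fluorescence increase over 60 s gives rate.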
NS1 inh: qHTS Assay for Inhibitors of Influenza NS1 Protein Function. S. cerevisiae slowed by influenza A NS1, growth recovery by OD600. actives 0.4% (n = 270,000). AID 2326, 2010. Potency, µM (highest dose often 46.1 µM), for inactives: at the top dose activity, positive = more growth; active means well fitted rising curve with a large enough effect; inconclusive means small, poorly fitted or top-dose-only effect; inactive means no such curve, though single readings can be large or run the other way; note: nearly all actives have a fitted effect of over 50% in size
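Recovery from NS1-induced slow growth read by OD600 in budding yeast switched to galactose assay medium (pH 6.0, -URA) at 1:100 dilution. Compound 23 nl per well; the matching strain lacking NS1 serves as control.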
SARS PLpro yeast: qHTS of Yeast-based Assay for SARS-CoV PLP | Potency, µM (series often up to 32.9 µM), for the others: top-dose activity, positive = growth rescue | actives 0.19% (n = 330,000) | AID 485353, 2010 | S. cerevisiae expressing SARS-CoV PLpro, growth rescue; control for the full effect not named in the record; active means well fitted rising curve with a large enough effect; inconclusive means small, poorly fitted or top-dose-only effect; inactive means no such curve, though single readings can be large or run the other way; note: 0% is about no effect; nearly all actives have a fitted effect of over 55% in size; growth read by luminescence after 48 h
LASV entry inh: qHTS for Inhibitors of binding or entry into cells for Lassa Virus; Lassa virus pseudotype entry inhibition, cell reporter; control for the full effect not named in the record; Potency, µM (highest dose often 37.9 µM), for the others: at the highest dose activity change, negative = inhibition, most hits filed as inhibitors; actives 1.2% (n = 300,000); active means well fitted inhibition curve with a large enough effect; inconclusive means small, poorly fitted or top-dose-only effect, or effect the other way; inactive means flat fitted curve, though single readings scatter; tested in HEK293 cells; note: % is set by controls: 0 for no effect and ±100 for the full control effect; nearly all actives have a fitted effect of over 50% in size; luciferase read-out
2A StopGo: High Throughput Screening for Foot and Mouth Disease Virus Antivirals; human cells with a luciferase reporter of 2A StopGo recoding; control for the full effect not named in the record; Potency, µM (top dose mostly 57.9 µM), for the others: at the top dose signal change, negative = less light; actives 1.2% (n = 410,000); active = well fitted falling curve with a large enough effect; inconclusive = small, poorly fitted or top-dose-only effect; inactive = no such curve, though single readings can be large or run the other way; tested in HEK293T cells; note: % is set by controls: 0 for no effect and ±100 for the full control effect; nearly all actives have a fitted effect of over 45% in size; luciferase light after 4 h
* hit, by the source's call; ? = inconclusive; . = not tested or not shown; & = joins results of further samples; [ ] = another dose, or the depositor's remark. Unless noted, calls come from the whole dose curve; as a rule, active = well fitted curve in the direction sought with a large enough effect; inconclusive = small, poorly fitted or top-dose-only effect, or another doubt; inactive = no such curve, though single readings can be large; an effect the other way counts as inactive or inconclusive. Potency is the fitted concentration of half-maximal effect.

Fields: RE007 growth inh, Cruzain inh Det, Marburg entry inh, Cruzain inh noDet, NS1 inh, SARS PLpro yeast, LASV entry inh, 2A StopGo
CCc1nnc(NC(=O)CSc2ccc(-c3ccc(-n4cccn4)cc3)nn2)s1
→ -3%, ., -17%, ., ., ., ?, -18%
CC1=C(C(=O)OCc2ccccc2)C(c2ccc(Cl)cc2)NC(=O)N1CCCCCC(=O)O (stereo not given)
→ 3%, -9.2%&-17%, 0%, ?, -3%, -15%, -8%, -10%
CC(=O)Nc1c(C)nn(-c2ccccc2)c1N1CCC(C(=O)NCc2cccc(F)c2)CC1
→ ., -17%, ., 23%, ., ., -5%[46.1 µM], 0%
CC(=O)c1cccc(NC(=O)c2nccnc2C(=O)O)c1
→ -1%, 2.2%, 8%, 6%, 5%, -4%, ?, 3%
Cc1ccc2nc(CSc3nnc(Cc4cccs4)n3C3CCCCC3)cc(=O)n2c1
→ -6%, -7.4%, 1%[46.1 µM], 2%, -8%, 24%, 3%, 11%
Nc1nc(NCc2ccco2)nc(N2CCCCCC2)c1[N+](=O)[O-]
→ 6%, -9.0%, ?, -1%, -35%, -27%, ?, ?
CCOC(=O)C1CCCN(C(=O)c2cc(-c3ccc(C)cc3)nc3ccccc23)C1 (stereo not given)
→ 2%, ., ?, ., ., -15%, ?, -2%
Cc1ccc(S(=O)(=O)Cn2nnnc2C(CC(C)C)N2CCN(c3ccc(F)cc3)CC2)cc1 (stereo not given)
→ 1%, 1.7%, ?, -20%, -32%, 0%, -20%, -9%
Cc1ccc(Cl)cc1NC(=S)N1CCC(c2ccccc2)C1 (stereo not given)
→ 5%, ., ?, ., 7%, -2%, ?, -15%
CC1(C)CC(=O)C([C@H]2C3=C(CC(C)(C)CC3=O)Oc3ccccc32)C(=O)C1
→ ., 0.5%, -5%[46.1 µM], 15%, ., ., ., -10%
Cc1ccc(S(=O)(=O)N2CCCCC2)cc1NC(=O)CSc1nnc(C2CC2)n1C
→ -9%, ., 10%, ., ., 5%, -5%, 2%
O=C(c1ccc(Cl)c(F)c1F)N1CCCC1
→ -13%, 5.5%, 12%, -7%, 6%, 6%, 16%, 21%
CCCC12CN3CC(CCC)(CN(C1)C3c1ccc(OCc3ccccc3)cc1)C2=O (stereo not given)
→ ., 1.3%, 3%[46.1 µM], -8%, ., ., 15%[46.1 µM], 0%
CC(C)CCn1c(NCCN(C)C)nc2c1c(=O)[nH]c(=O)n2C
→ 10%, -0.2%, 2%, 3%, -4%, 2%, 1%, 8%
COC(=O)COc1ccc(S(=O)(=O)N2CCOCC2)cc1C
→ -6%, 5.1%, 0%, 5%, 0%, 2%, -3%, -16%
CCn1cc(C(=O)NCCCOC)c(=O)c2cc(S(=O)(=O)N3CCC(C)CC3)ccc21
→ -5%, ., ?, ., 5%, -5%, 8%[46.1 µM], -7%
Cc1c(-c2ccccc2)oc2c(C(=O)OCC(=O)Nc3cccc(F)c3)cccc2c1=O
→ 13%, -2.3%, 16%, 9%, 3%, -2%, 6%, -12%
COc1ccccc1CNC(=O)c1cc2sccc2n1C
→ -15%, -5.6%, -8%, 16%, -9%, -2%, -3%, 0%
O=C1NC(=O)C2(CCc3ccccc32)N1 (stereo not given)
→ 10%, 4.8%, 0%&0%, 2%, ?, 1%, -1%, -8%
COc1ccc(C2=NO[C@@](CC(=O)O)(C(=O)Nc3ccc4c(c3)OCCO4)C2)cc1
→ -9%, ., ?, ., 0%, 3%, 28%[46.1 µM], 6%
O=C(O)c1ccc(Nc2nc(-c3cccnc3)cs2)cc1
→ 7%, ., ?, ., 1%, 2%, ?, 15%
CCc1nnc(SCCSc2nnc(CC)n2N)n1N
→ 10%, 3.5%, 12%[46.1 µM], -1%, 3%, -4%, 4%, 18%
Cc1ccc(S(=O)(=O)/C(C#N)=C/c2c[nH]c3ccccc23)cc1
→ 13%, -6.7%, -20%, -14%, 4%, -1%, 0%, -7%
COc1ccc(-c2onc(C)c2C)cc1S(=O)(=O)N1CCC(C)CC1
→ ., -2.6%, ., ?, ., ., -21%[46.1 µM], -22%
CCc1ccc(NC(=O)CN(C)S(=O)(=O)c2ccc3c(c2)c(=O)n(C)c(=O)n3C)cc1
→ ., 5.1%, 0%[46.1 µM], -5%, ., ., 3%[46.1 µM], -22%
Cc1sc2ncn(-n3c(C)ccc3C)c(=O)c2c1C
→ 6%, -1.7%, ?, -4%, -12%, 3%, 7%, ?
COc1ccc(CNCc2c(C(=O)O)n(Cc3ccc(F)cc3)c3cc(C)ccc23)cc1OC
→ ., -2.9%, ., ?, ., ., ?, -1%
O=C(NCCc1nc2ccccc2n1CCCOc1ccc(Cl)cc1)C1CCCCC1
→ ., 2µM*, ?, 16%, ., ., ?, -1%
C=CCN(CC=C)S(=O)(=O)c1ccc(C(=O)Nc2nc3c(s2)CCc2ccccc2-3)cc1
→ 9%, -0.5%, -26%, 10µM*, 0%, 3%, 3.2µM*, -26%
Cc1cccc(OC2CCN(Cc3nc(CC4CC4)no3)CC2)c1
→ -2%, ., -15%[46.1 µM], ., -3%, 0%, 0%[46.1 µM], -15%
CCN(Cc1ccncc1)C(=O)CCc1ccccc1
→ -9%, ., -13%, ., -2%, 25%, 22%, -5%
CCCc1cc(=O)oc2cc(OCC(=O)N3CCN(Cc4ccc5c(c4)OCO5)CC3)ccc12
→ -5%, ., ., ., -33%, -5%, ., -6%
COc1cc(NC(=O)COC(=O)CO/N=C(\C)c2ccc3c(c2)OCO3)cc(OC)c1OC
→ -1%, ., 20%, ., ., -5%, -3%[46.1 µM], -1%
COc1cccc(CN2CCNC(=O)C2CC(=O)N(C)Cc2cnccn2)c1OC (stereo not given)
→ -4%, ., -3%[46.1 µM], ., 2%, 0%, 7%, -2%
COC(=O)CN(c1ccc2c(c1)OCO2)S(C)(=O)=O
→ -15%, 3.2%, 1%, 5%, 4%, -7%, 29%, -19%
CCCCNC(=O)c1cn(-c2ccc(OCC)cc2)c(=O)c2cc(OC)c(OC)cc12
→ 10%, -1.6%, ?, ?, 6%, 2%, -13%, -15%
CN(C)c1cc(-c2ccccc2)nc(-c2ccccc2)n1
→ 8%, ., 3%[46.1 µM], ., 10%, 6%, 3%[46.1 µM], -6%
OC1(c2cccc(F)c2)CCN(Cc2ccncc2)CC1
→ -3%, 5.8%, -3%[46.1 µM], -11%, -12%, -5%, -6%, -21%
O=C(COc1cccc(Cl)c1)NCc1ccccc1
→ -2%, ., 3%[46.1 µM], ., -17%, -5%, ?, 0%
C=CCNC(=S)Nc1ccc(F)cc1F
→ -6%, -5.7%, -27%, 4%, -1%, 11%, -10%, -23%
COc1ccccc1N1CCN(C(=O)C(=O)N/N=C/c2ccccc2F)CC1
→ 1%, -2.6%, 9%, 7%, 9%, -1%, 4%, 73%[activator]
CCS(=O)(=O)N1CCN(C(=O)c2cccc3ccccc23)CC1
→ 0%, ., ?, ., -7%, 8%, ?, -10%
CC(C)Cn1c(-c2ccc(C#N)cc2)nc2c1c(=O)[nH]c(=O)n2CC(C)C
→ -5%, -2.7%, -3%, 30%, 5%, 8%, ?, -20%
O=C(Nc1ccc(N2CCOCC2)cc1)C1=NN(c2ccccc2)C(=O)CC1
→ -9%, ., -1%, ., ., -1%, -1%, 0%
COc1ccc(NC(=O)c2cc(F)cc(F)c2)cc1Cl
→ -7%, 1.4%, 7%, -7%, 7%, 0%, 11%, 28%
CS(=O)(=O)N(CCc1ccccc1)CC(=O)NCc1ccc2c(c1)OCO2
→ -13%, 2.3%, 4%, 24%, 0%, ., 4%, -11%
O=[N+]([O-])c1cnc2ccc3ccccc3c2c1
→ -7%, ., -3%[46.1 µM], ., -32%, -2%, 14%, 20%
COc1ccc(Br)cc1C1SCC(=O)Nc2c1c(C)nn2-c1ccccc1C (stereo not given)
→ ., -11%, 3%[46.1 µM], 5%, ., ., -7%[46.1 µM], -28%
O=C(CSc1nnc(-c2cccs2)n1-c1ccccc1)N1CCOCC1
→ 14%, 1.9%, 1%, -13%, ?, 0%, 17%, 10%
O=C1/C(=C/c2coc3ccc(O)cc3c2=O)SC(=S)N1c1ccccc1
→ -12%, ., ., ., 4%, 1%, ., ?
O=C(Nc1cc(Oc2ccc(Cl)cc2)cc([N+](=O)[O-])c1)c1ccco1
→ -23%, -7.8%, ?, -6%, -17%, -37%, -6%, -8%
CCC1CCCCN1C(=O)CSc1nc2c(c(=O)n(C)c(=O)n2C)n1C (stereo not given)
→ -7%, ., -2%[46.1 µM], ., ?, 0%, ?, -14%
CCOC(=O)c1cc2c(C(F)(F)F)cc(-c3ccccc3)nc2o1
→ -7%, ?, -2%, 2%, 1%, 5%, 10%, -7%
COc1ccc(OCC(=O)N2CCCC(CO)(CCOc3ccccc3)C2)cc1 (stereo not given)
→ -6%, ., ., ., -10%, -5%, ., -23%
CC(C)N(C(=O)CN1C(=O)C(=O)c2ccccc21)c1ccccc1
→ 32%, ., 17%[46.1 µM], ., 2%, 0%, ?, 28%

An excerpt from above, reduced to RE007 growth inh, LASV entry inh and SARS PLpro yeast.
structure	RE007 growth inh	LASV entry inh	SARS PLpro yeast
CC(=O)c1cccc(NC(=O)c2nccnc2C(=O)O)c1	-1%	?	-4%
O=C(NCCc1nc2ccccc2n1CCCOc1ccc(Cl)cc1)C1CCCCC1	.	?	.
COc1ccccc1CNC(=O)c1cc2sccc2n1C	-15%	-3%	-2%

Compound activity from PubChem BioAssay.

Compounds as they come; 4.7% or so of the library scored in one or more.
